Screening data: PubChem BioAssay, several laboratories
Mtb hypoxia rep = inhibitors of hypoxia-regulated fluorescent reporter in Mycobacterium tuberculosis; fluorescence inhibition, % (test concentration not listed); actives 0.1% (n = 300,000); M. tuberculosis hypoxia-regulated fluorescent reporter, fluorescence;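 active means 35 to 45% if threefold the growth effect, above 45% if 1.5-fold the growth effect; inactive means the rest, general growth blockers included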;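 further: wells of about 50 µL received 100 nL stock; 0% = vehicle wells and 100% = reference inhibitor wells; whole bacteria with a GFP reporter of the hypoxia response; strong numbers were not always called active; many hits fall short of the cut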
PrP 5UTR inh = suppresses PrP 5' UTR mRNA reporter expression; actives 0.35% (n = 340,000); cell-based PrP 5' UTR mRNA reporter, plate reader; inhibition, % (no concentration beside the values);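 active means every replicate at 50% or more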;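 further: 0 = median of the neutral control wells; tested in H4 reporter cells; numbers are from one replicate; inactives centre near -14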
Bead autofluor = compound fluorescence in toxin protease inhibitor counterscreen; compound autofluorescence counterscreen, microsphere flow cytometry; stronger effect = higher value; actives 3.1% (n = 360,000); AID 624483; fluorescence intensity (test concentration not listed);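 active means at least 3 SD above the mean of all compounds, about 16000 in these data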;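 further: 100 nL of 1 mM stock went into each well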
Sa ugtP lethal = compounds lethal to S. aureus RN4220 ugtP deletion mutant. growth inhibition, % (test concentration not listed). actives 0.54% (n = 330,000). OD600 growth, 16 h; some inactives read as strong as hits;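 active means z-score under -3 and OD600 up to 0.15 on both plates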;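 further: plate controls were untreated wells for no effect and antibiotic for full effect; wells of about 80 µL received 100 nL stock; the first replicate is given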
BJeLR viability = kills HRASV12-expressing BJeLR cells; BJeLR (HRASV12) viability, CellTiter-Glo ATP luminescence, 48 h; reference of the scale not given here; actives 0.17% (n = 300,000); inhibition, % (concentration not given with the values); AID 1554;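 active means replicate mean above 50%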;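 further: 50 nL library stock added to about 25 µL; numbers are from one replicate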
Sa RN4220 lethal = kills Staphylococcus aureus RN4220 | S. aureus RN4220 growth, OD600, 16 h | inhibition, % (no concentration beside the values) | actives 0.33% (n = 330,000) | AID 1259311;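 active means z-score of -3 or lower and OD600 up to 0.18 on both plates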;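 further: plate controls were untreated cells for no effect and reference antibiotic for full effect; stock transfer was 100 nL into about 80 µL; one replicate is shown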
Mtb hypoxia rep growth = further read-out of Mtb hypoxia rep, marked with its call; growth inhibition, %; measured here: M. tuberculosis growth (absorbance);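 0% = vehicle and 100% = reference antibiotic; read after six days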
Numbers without * were called inactive; . = no result given; & = joins results of further samples.

A first look, 4 compounds:
SMILES | Mtb hypoxia rep | Mtb hypoxia rep growth | PrP 5UTR inh | Bead autofluor | Sa ugtP lethal | BJeLR viability | Sa RN4220 lethal
COc1cc(S(=O)(=O)NCC2OCCc3ccccc32)ccc1-n1cnnn1 (configuration not stated) | 5 | 6 | -3 | 8063 | 14 | 0 | 6.6
COC(=O)c1cc(NC(=O)C2CC(=O)NC(=NCc3ccc(OC)cc3)S2)cc(C(=O)OC)c1 (configuration not stated) | 2 | 10 | -10 | 3668 | -3 | -3 | 1.9
CCC1Nc2ncnc(N3CCCCC3)c2N(Cc2ccc(OC)cc2)C1=O (configuration not stated) | -4 | 1 | -5 | 3427&5577 | -11 | . | 3.2
Cc1cc(NC(=O)c2ccc(Br)cc2)nc(C)n1 | 15 | 14 | -32 | 3985 | 9 | -10 | 5.4

Main list, repeating the preview:
SMILES | Mtb hypoxia rep | Mtb hypoxia rep growth | PrP 5UTR inh | Bead autofluor | Sa ugtP lethal | BJeLR viability | Sa RN4220 lethal
COc1cc(S(=O)(=O)NCC2OCCc3ccccc32)ccc1-n1cnnn1 (configuration not stated) | 5 | 6 | -3 | 8063 | 14 | 0 | 6.6
COC(=O)c1cc(NC(=O)C2CC(=O)NC(=NCc3ccc(OC)cc3)S2)cc(C(=O)OC)c1 (configuration not stated) | 2 | 10 | -10 | 3668 | -3 | -3 | 1.9
CCC1Nc2ncnc(N3CCCCC3)c2N(Cc2ccc(OC)cc2)C1=O (configuration not stated) | -4 | 1 | -5 | 3427&5577 | -11 | . | 3.2
Cc1cc(NC(=O)c2ccc(Br)cc2)nc(C)n1 | 15 | 14 | -32 | 3985 | 9 | -10 | 5.4
CC(/C=C/c1ccco1)=NNC(=O)c1cc(C)[nH]n1 | 17 | 7 | . | . | -5 | . | 7.9
CCNS(=O)(=O)c1ccc(NC(=O)c2ccc(Cn3cc([N+](=O)[O-])cn3)o2)cc1 | 0 | 16 | -2 | 2096 | 1 | 6 | 2.3
CC(C(=O)Nc1ccccc1)N(C)Cc1cccs1 (configuration not stated) | 10 | 18 | -8 | 3813 | 5 | 3 | -0.5
O=C(Nc1ccccc1-c1ccccc1)c1ccco1 | . | . | -9 | 4819 | 3 | -6 | 0.1
COc1cc(CN2CCCN(C)CC2)cc([N+](=O)[O-])c1O | 14 | -9 | -23 | 3923 | 5 | 9 | 0.4
COc1ccc(S(=O)(=O)C(C#N)c2nc3ccccc3nc2N2CCCC(C)C2)cc1 (configuration not stated) | 14 | 10 | -12 | 2510 | -9 | 7 | -4.3
COc1ccc(Nc2nc(-c3sc(N)nc3C)cs2)cc1 | -2 | 7 | -45 | 3376 | -10 | -5 | -4.6
COc1ccc(C=NNc2cc(N3CCOCC3)nc(C)n2)c(OC)c1 | -7 | -8 | . | . | -1 | . | -3.3
Cc1ccc(OCc2cc(C(=O)N(C)CCn3ccnc3C)no2)cc1C | 8 | -1 | -23 | 5266 | 10 | 1 | 1.2
CC(C)COc1cccc(C(=O)N2CCN(C(=O)c3ccco3)CC2)c1 | -7 | 1 | -2 | 3920 | -5 | . | -5.2
CCCn1nnc(NC(=S)NC(=O)C(C)(C)C)n1 | 0 | 16 | -24 | 2048 | -1 | 7 | 6.2
COC(=O)c1ccc(OC(C)C(=O)c2ccc(C)cc2)cc1 (configuration not stated) | 7 | 20 | -6 | 2165 | 5 | -4 | 2.5
CCCCn1c(SCC(=O)OCC)nnc1-c1ccoc1C | 10 | 3 | -10 | 4581 | 2 | -2 | 0.2
CCN(CC)c1ccc(NC(=O)COc2ccc(C)cc2)cc1 | 3 | -2 | -4 | 7949 | 14 | -1 | 1.4
CN1CCC(N(C)C(=O)CCc2nc3ccccc3c(=O)[nH]2)CC1 | 9 | -4 | -14 | 11053 | 3 | -16 | 5.5
COCCCn1c(SCC(=O)N2CCOCC2)nc2ccccc2c1=O | 0 | 0 | -5 | 5765 | 8 | 2 | 2.1
CCOC(=O)c1sc(=S)n(C)c1NC(=O)c1cccc(Br)c1 | -4 | -5 | . | 5965 | 11 | 6 | 18
COc1cccc(CNC(=O)C(=O)NCC2CCCO2)c1 (configuration not stated) | 11 | 0 | -12 | 2319 | -1 | -4 | 3.2
O=C(NCCCO)C(=O)Nc1cc2c3c(c1)CCN3C(=O)CC2 | 5 | -1 | 1 | 5652 | 2 | -12 | 0.7
CC(=NNC(=O)c1ccccc1OCc1ccc(F)cc1)c1ccccn1 | . | . | . | . | -2 | . | 8.1
NS(=O)(=O)c1ccc(CCNC(=O)/C=C/c2cccc([N+](=O)[O-])c2)cc1 | 1 | 0 | -12 | 3373 | 5 | 10 | 5.7
O=C1N2CCCc3cccc(c32)C12Nc1ccccc1S2 (configuration not stated) | . | . | -7 | 2154 | -1 | -9 | 0.2
CCN(CC)c1ccc(C=NN2C(=O)c3ccccc3C2=O)c(O)c1 | -2 | -2 | . | . | 9 | . | 7.9
COc1ccc(OC)c(NC(=O)CSc2nc(C)cs2)c1 | 12 | 3 | -9 | 5888 | 11 | 10 | 5.3
Cn1c(=O)[nH]c2c(c(C(=O)O)nn2C)c1=O | 12 | 10 | -15 | 2926 | 11 | . | 5.1
O=C(CCC1CCCC1)NCCS(=O)(=O)N1CCN(c2ccccc2F)CC1 | 1 | 9 | -17 | 5865 | 2 | 5 | 0.8
COCCCN(C(=O)C1CCCCC1)c1c(N)n(Cc2ccccc2)c(=O)[nH]c1=O | 8 | -4 | -11 | 3645 | 1 | . | 4.8
CCSc1nc(C)c(C)c(=O)[nH]1 | 9 | 0 | -25 | 3994 | 3 | 0 | -1.3
COCc1cc(=O)[nH]c(SCCS(=O)(=O)c2ccc(C)cc2)n1 | 16 | 6 | -25 | 3501 | 15 | 7 | 3.1
COc1cc(C(=O)Nc2ccc(C(N)=O)cc2)c([N+](=O)[O-])cc1OC | -13 | 0 | -19 | 2711 | 8 | -2 | 6.2
CC1CN(C(=O)CCC(=O)NCc2ccccn2)c2ccccc2O1 (configuration not stated) | 2 | 6 | 0 | 4596 | -2 | 12 | 3.8
COC(=O)C1=C(CS(=O)(=O)c2ccc(OC)cc2)NC(=O)NC1c1ccccc1 (configuration not stated) | -1 | -3 | -20 | 5595 | 7 | 3 | 3.4
CCOC(=O)CSc1nc(C2CC2)cc(-c2ccc(F)cc2)c1C#N | 5 | 11 | -12 | 8338 | 61 | 7 | 3.5
CCOc1cc(C2Nc3ccccc3C(=O)N2c2ccccc2)ccc1O (configuration not stated) | 0 | 4 | -39 | 8961 | 4 | 1 | 7.8
Cc1ccc(C)c(NC(=O)CCN2CCc3ccccc3C2)c1 | 2 | 11 | -2 | 3697 | 4 | 6 | 12
COc1ccccc1Oc1ccc(S(=O)(=O)NCc2ccccn2)cc1 | 5 | 8 | -10 | 23518* | 0 | 16 | 9.5
Cc1ccc(SCCC(=O)NC(C)(C)C)cc1 | 11 | 10 | -24 | 8612 | -2 | -5 | 4.2
Cc1cc(C)cc(NC(=O)N2CCC(c3nc4ccccc4o3)CC2)c1 | 2 | 5 | -22 | 20562* | 1 | 2 | 1.9
COc1ccc(Nc2nnc(SCc3cc([N+](=O)[O-])cc4c3OCOC4)s2)cc1 | 4 | 2 | -5 | 23675* | 53 | 18 | -0.2
O=C(NCC(c1cccs1)N1CCOCC1)c1cc([N+](=O)[O-])ccc1Cl (configuration not stated) | 1 | 5 | -18 | 2170 | 8 | -1 | -1.1
O=C(NCCN1CCOCC1)c1cccc(S(=O)(=O)Nc2ccc(F)cc2)c1 | -7 | -4 | -19 | 4799 | -3 | . | 0.9
CCOc1ccc(C(=O)N(Cc2ccc(OC)cc2)Cc2cc3cc(OC)ccc3[nH]c2=O)cc1 | 4 | -1 | . | 8105 | 11 | 2 | 5.2
CCC(C)N(C(=O)COC(=O)CCc1c[nH]c2ccccc12)C1CCS(=O)(=O)C1 (configuration not stated) | . | . | -23 | 2487 | 0 | -3 | 0.3
CCc1nnc(NC(=O)CSc2ccc(-c3cccs3)nn2)s1 | 13 | 4 | -10 | 4088 | 2 | -2 | 0.3
CCOC(=O)c1cnc2c(C#N)cnn2c1N | 18 | 2 | -18 | 3877 | 6 | -4 | 15
COc1ccc(S(=O)(=O)NCC2CCC(C(=O)NCCC(C)C)CC2)cc1 (configuration not stated) | 5 | 9 | -41 | 10594 | 3 | 3 | -0.6
Cc1cccc(N(C)S(=O)(=O)c2ccc(-c3cc(C)no3)s2)c1 | . | . | -6 | 7082 | . | -10 | .
N#Cc1cc2c(nc1SC1CC(=O)N(c3ccccc3)C1=O)CCC2 (configuration not stated) | 13 | 4 | 27 | 2145 | 5 | . | 4.3
CCC(=O)C1=C(O)C(c2cccc(Oc3ccccc3)c2)CCC1=O (configuration not stated) | -3 | 2 | 1 | 2042 | 2 | 5 | 15
CCOc1ccc(/C=N/NC(=O)c2cc(-c3cccn3C)n[nH]2)cc1 | . | . | -20 | 2120 | . | 5 | .
COCCNC(=S)NNC(=O)CSCc1ccc(Cl)cc1Cl | 1 | 3 | -7 | 3217 | 6 | 3 | 4.4
CCOC(=O)C(C)Oc1ccc2c(-c3cccc([N+](=O)[O-])c3)cc(=O)oc2c1 (configuration not stated) | 10 | 7 | 3 | 2467 | 7 | 1 | 8.0
O=C(CNC(=O)c1ccc(Br)o1)NNC(=O)c1ccc(Cl)cc1 | -4 | 10 | -15 | 3886 | 3 | . | 2.9
Cn1c(SCC(=O)OC2CCCCC2)nnc1-c1ccc2c(c1)OCO2 | 3 | 15 | 13 | 21547* | -3 | 2 | -1.7
CCOC(=O)c1c(N2C(=O)Nc3cc(Cl)c(Cl)cc3N2O)sc2c1CCCCC2 | 1 | -3 | -26 | 2516 | 41 | . | 35
Cc1cc(C)n(-c2ccc(C(=O)Nc3ccc(S(=O)(=O)N(C)C)cc3)cc2)n1 | 7 | 5 | -19 | 2645 | -23 | 6 | 1.9

(next part)
SMILES | Mtb hypoxia rep | Mtb hypoxia rep growth | PrP 5UTR inh | Bead autofluor | Sa ugtP lethal | BJeLR viability | Sa RN4220 lethal
COc1ccccc1CCc1nnc(CCC(=O)NCC[C@@H]2C[C@@H]3C=C[C@H]2C3)o1 | 2 | 10 | -18 | 3967 | 0 | 9 | 1.9
CCOC(=O)c1cc(-c2ccccc2)sc1NC(=O)CSc1nncs1 | -3 | 7 | -41 | 2067 | -12 | -1 | 2.0
CS(=O)(=O)Nc1cc2c3c(c1)CCC(=O)N3CCC2 | 2 | -4 | 0 | 5839 | 0 | 3 | 2.6
CCCCN1C(=N)C(CC)(CC)C(=O)NC1=O | 2 | 2 | -3 | 2034 | 13 | -8 | 4.1
Cc1ccc([N+](=O)[O-])c2cccnc12 | 7 | 8 | -19 | 3598 | -7 | -3 | 2.7
COc1ccc(-c2nn(-c3ccccc3)cc2C(=O)N2CCN(S(=O)(=O)c3ccccc3C#N)CC2)cc1 | 10 | -4 | -13 | 4643 | 5 | -3 | 0.5
COc1cc(C=NNC(=O)c2ccc(Cl)cc2)ccc1Oc1ccc([N+](=O)[O-])cn1 | 15 | 5 | . | . | 0 | . | -4.3
Cc1cc(NC(=O)CCC(=O)N(c2ccccc2)C(C(=O)NC2CCCC2)c2ccncc2)no1 (configuration not stated) | . | . | -10 | 4325 | 2 | 3 | 1.4
O=C(CC(=O)NC1CCCCC1)NN=Cc1cccc2ccccc12 | -7 | -5 | . | . | -11 | . | -0.5
Cc1nn(C)cc1NC(=O)CCSc1nc(-c2ccco2)cc(C(F)(F)F)n1 | 12 | 9 | -11 | 2867 | -2 | -11 | -15
Cc1cccc(C)c1OCC(=O)NNC(=O)CNC(=O)c1ccc(OC(F)F)cc1 | 14 | 32 | -3 | 3918 | 2 | . | -0.3
c1ccc2c(c1)CCN(Cc1nnnn1Cc1ccc3c(c1)OCO3)C2 | . | . | -21 | 2363 | -1 | -16 | 2.7
COc1cccc(NC2SC(=O)N(c3ccccc3)C2=O)c1 (configuration not stated) | 6 | 8 | -43 | 5090 | 1 | 0 | 4.1

An excerpt from the list above, for reference:
SMILES | Mtb hypoxia rep | Mtb hypoxia rep growth | PrP 5UTR inh | Bead autofluor | Sa ugtP lethal | BJeLR viability | Sa RN4220 lethal
c1ccc2c(c1)CCN(Cc1nnnn1Cc1ccc3c(c1)OCO3)C2 | . | . | -21 | 2363 | -1 | -16 | 2.7
COc1cccc(NC2SC(=O)N(c3ccccc3)C2=O)c1 (configuration not stated) | 6 | 8 | -43 | 5090 | 1 | 0 | 4.1
